Screening data from PubChem BioAssay.
AmpC nodet inh – Promiscuous and Specific Inhibitors of AmpC Beta-Lactamase (assay without detergent); P00811; AmpC nitrocefin hydrolysis, absorbance 480 nm, no detergent; potencies from a single point are estimates; Potency, µM (doses to about 28.7 µM), for the others: top-dose activity change, negative = inhibition; hit rate 1.8% among 71,000; AID 585, 2007; active = falling curve, for most hits resting on a single point; inconclusive = weak or doubtful change; inactive = flat or rising curve; further: % of control where 0% means no effect; about half of the hits show no inhibition at the top dose; a quarter of the inactives give rising signals
Target sequence (P00811 whole entry, looked up): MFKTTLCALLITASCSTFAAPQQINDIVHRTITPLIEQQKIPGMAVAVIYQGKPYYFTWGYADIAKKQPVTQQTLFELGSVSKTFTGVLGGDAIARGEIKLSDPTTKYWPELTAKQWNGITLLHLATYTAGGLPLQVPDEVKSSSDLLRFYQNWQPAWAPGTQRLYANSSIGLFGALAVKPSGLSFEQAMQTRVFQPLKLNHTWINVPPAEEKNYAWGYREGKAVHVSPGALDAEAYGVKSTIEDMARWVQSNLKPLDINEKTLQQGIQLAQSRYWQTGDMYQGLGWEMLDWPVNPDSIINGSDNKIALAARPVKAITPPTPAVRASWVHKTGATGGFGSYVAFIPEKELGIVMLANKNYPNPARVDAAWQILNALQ
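AmpC in 20 mM phosphate buffer pH 7.0 was preincubated 15 min at room temperature with compounds. Nitrocefin (800 uM stock) was then added and hydrolysis followed at 480 nm every 20 s for 4 min.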
Numbers without * were called inactive; ? = inconclusive; [ ] = remark or other dose. Potency means the concentration at half of the fitted maximal effect. A portion of the library; rates above refer to the full screens.

entry	Molecule	AmpC nodet inh
1	COc1cccc(Nc2ncc3nc(-c4ccccc4)c(=O)n(C4CC4)c3n2)c1	16%
2	Cc1cc(C(=O)Nc2ccccc2C#N)n(-c2ccccc2)n1	5%
3	O=S(=O)(O)c1nnc2sc3ccccc3n12	-9%
4	Nc1nnc(CSCc2ccccc2)s1	-4%
5	CC(C)CN(C(=O)CSc1nnc2c(Cl)cc(C(F)(F)F)cn12)C1CCS(=O)(=O)C1 (stereo unspecified)	42%
6	CC(C)[C@@H]1CN[C@H](C(=O)O)[C@@H]1CC(=O)O	-5%
7	COc1ccccc1-n1c(O)c(C=Nc2c(C)n(C)n(-c3ccccc3)c2=O)c(=O)[nH]c1=O	-6%
8	Cc1nc(NCCN2CCOCC2)c2oc3ccccc3c2n1	-8%
9	Cc1cccc(OCCc2nnc(N)s2)c1C	-9%
10	COc1ccc(-c2cc3nc(C)cc(C)n3n2)c(OC)c1	21%
11	O=C(CCn1c(=O)oc2ccccc21)Nc1ccon1	-11%
12	N=c1c2c(n(Cc3ccc(Cl)cc3)c3c1CCC3)CCC2	3%
13	COC(=O)c1ccc(N(CC(=O)NC2CCCC2)C(=O)CNC(=O)c2ccco2)cc1	3%
14	CCCS(=O)(=O)N1CCC(C(=O)NCCCOC(C)C)CC1	-4%
15	O=c1c2ccccc2nc(-c2ccco2)n1CCCn1ccnc1	-11%
16	CC(Nc1nc(N2CCCC2)nc2ccccc12)c1ccccc1 (stereo unspecified)	8%
17	C=CCn1c(O)c(C(CC)=Nc2ccccc2NC(=O)CC)c(=O)[nH]c1=O	-3%
18	O=C(Nc1cccc(F)c1)N1CCCC2(CCN(C(=O)c3cc(C(F)(F)F)cc(C(F)(F)F)c3)CC2)C1	83%
19	O=C(CSc1nnc(-c2ccccc2)n1C1CCCCC1)N1CCCC1	42%
20	O=C(c1cnn2ccccc12)N(Cc1ccco1)C1CCCC1	4µM*[single pt active]
21	CCOC(=O)c1cnc2ccc(C(=O)OC)cc2c1NCCN1CCOCC1	16%
22	O=C1Oc2ccccc2C(=O)/C1=C\N1C(=O)N/C(=C\c2ccccc2O)C1=O	?
23	CCOC(=O)N1CCC(Nc2c(Nc3cccc(CC)c3)c(=O)c2=O)CC1	15%
24	CCCC[C@@H]1C[C@H]1C(NC(=O)Cc1ccccc1)c1ccc(Cl)cc1 (stereo partly specified)	1%
25	CCn1c(C2CC(=O)N(c3ccc(C)c(C)c3)C2)nc2ccccc21 (stereo unspecified)	75%

The closing 3 entries of the part before come first, to join the parts.
entry	Molecule	AmpC nodet inh
23	CCOC(=O)N1CCC(Nc2c(Nc3cccc(CC)c3)c(=O)c2=O)CC1	15%
24	CCCC[C@@H]1C[C@H]1C(NC(=O)Cc1ccccc1)c1ccc(Cl)cc1 (stereo partly specified)	1%
25	CCn1c(C2CC(=O)N(c3ccc(C)c(C)c3)C2)nc2ccccc21 (stereo unspecified)	75%
26	Cc1cc(C)cc(NC(=O)CN(C)S(=O)(=O)c2cccc3nsnc23)c1	-8%
27	CCc1nc(NCCCN2CCOCC2)c2oc3ccccc3c2n1	9%
28	CC12CN(Cc3ccccc3)CC(C)(CN(Cc3ccccc3)C1)C2=NO	15%
29	COc1ccc(Cl)cc1C(=O)Nc1ccccc1N1CCN(C(=O)C(C)C)CC1	116%
30	N#CC(C#N)=c1ccc2c(c1)N1C3=C(CCCC3)CC3CCCCC31N=2 (stereo unspecified)	35%
31	Cc1ccc(-c2nnn(CC(=O)N(CCO)C(C(=O)NC(C)(C)C)c3ccncc3)n2)cc1 (stereo unspecified)	74%
32	Cc1cc2c(C(C)C)c(O)c(O)c(C=O)c2c(O)c1-c1c(C)cc2c(C(C)C)c(O)c(O)c(C=O)c2c1O	-19%
33	COCC(=O)N1CCC2(CC1)CN(c1ccccn1)C2	-7%
34	Cc1ccc(CNC(=O)C2CCN(S(=O)(=O)c3c(C)noc3C)CC2)cc1	26%
35	N#CCSc1nnc2ccc3ccccc3n12	-6%
36	COc1ccc(-c2cc3nc(C4CCN(C(=O)OC(C)(C)C)CC4)c(C(=O)O)cn3n2)cc1	59%
37	CC(C)c1ccc2c(c1)C(=O)NC(C)(C)C2	0%
38	C=C(C)COc1ccc2c(C)c(C)c(=O)oc2c1OCC(=C)C	13%
39	Nc1nc(CSc2nc3ccccc3s2)nc(N2CCCCC2)n1	55%
40	c1ccc(CNc2ncnc3c2cnn3-c2ccccc2)cc1	-8%
41	O=C(NC1c2ccccc2-c2ccccc21)N1CCCCC1	16%
42	CC1=C(C(=O)OCc2ccc3c(c2)OCO3)C(c2ccc(Cl)cc2)NC(=O)N1 (stereo unspecified)	-6%
43	CC1(C(=O)NC2CCCC2)CCC(=O)N1Cc1ccc2c(c1)OCO2 (stereo unspecified)	-6%
44	O=C(Nc1ccc2c(c1)nc1n2CCCCC1)c1cc(S(=O)(=O)N2CCOCC2)ccc1Cl	110%
45	O=C(Cn1c(=O)oc2ccccc21)N1CCN(c2ccc(N3CCOCC3)nn2)CC1	2.5µM*[single pt active]
46	O=c1[nH]c(=O)n(CCC2=CCCCC2)c(O)c1C=NCc1cccnc1	-4%
47	Cc1cccc(OCCC(=O)OCC(=O)N2CCc3ccccc32)c1	32%
48	O=C(NCC1COc2ccccc2O1)c1c[nH]c2ccc(S(=O)(=O)N3CCOCC3)cc2c1=O (stereo unspecified)	32%
49	OCCNc1nc(Nc2ccccc2)nc(Nc2ccccc2)n1	26%
50	COc1ccc2c(c1)CCC(C)N2S(=O)(=O)c1ccc(C2CNC(=O)C2)cc1 (stereo unspecified)	112%

(continued)
entry	Molecule	AmpC nodet inh
51	CN(C)CCNC(=O)c1c(O)c2c([nH]c1=O)CCCC2	1%
52	COCCOc1nc2c(c(=O)n(C)c(=O)n2C)n1CCc1ccccc1	48%
53	Cc1ccc(NC(=O)CN2CC(C)SC2=NC2CCCCC2)cc1 (stereo unspecified)	5%
54	O=S(=O)(c1ccccc1)N1CCC[C@@]2(CCN(c3ccccc3)C2)C1	6%
55	C[C@@H](N1CCOCC1)[C@@](O)(c1ccccc1)c1ccccn1	0%[5.75 µM]
56	COCCN(C(=O)Cc1cccs1)c1nnc(-c2cccnc2)s1	0%
57	O=C(O)CCCC(=O)N1CCN(c2cccc(Cl)c2)CC1	4%
58	COC(=O)c1cnn2c(C)c(Cc3cccc(F)c3)c(C)nc12	17%
59	COC(=O)c1ccc(C(NC(=O)OCc2ccccc2)/C(C)=C/[C@@H](C)C(=O)NCc2cc(C)on2)cc1 (stereo partly specified)	80%
60	Cc1ccc(NC(=O)N2CCCC2C(=O)NCCc2ccccc2)cc1 (stereo unspecified)	-10%
61	Cc1c(Cl)cccc1NC(=O)CC1SCCNC1=O (stereo unspecified)	4%
62	COc1ccccc1-c1cc(C(=O)Nc2cccnc2)no1	2%
63	CCCC(=N)C1=C(O)CC(CC(C)SCC)CC1=O (stereo unspecified)	27%
64	CCOC(=O)Cn1c2ccc(OC)cc2c2nc3ccccc3nc21	11%
65	COc1cc2cc(C(c3nnnn3Cc3ccc(F)cc3)N3CCCCCC3)c(=O)[nH]c2cc1OC (stereo unspecified)	123%
66	O=c1cc(-c2ccccc2O)oc2c1ccc1ccccc12	-5%
67	CCCn1nc(-c2nnc(-c3ccc(C)c(C)c3)o2)c2ccccc2c1=O	11%
68	CN(C)C(=O)N1CCN(C(=O)c2ccccc2Sc2ccccc2C#N)CC1	71%
69	O=c1/c(=C/c2ccc(CNS(=O)(=O)c3ccccc3)o2)sc2n1CCN=2	-7%
70	COC(=O)CCCCC(=O)C1C(=O)CC(C)(C)C(C(=O)OC)C1=O (stereo unspecified)	13%
71	COc1ccc(OC)c(-n2nnnc2SCC(=O)NCCc2ccccc2)c1	15%
72	OCCSCc1cc(Cl)cc(Cl)c1O	-10%[5.75 µM]
73	COc1ccccc1CN1CCCC2(CCN(C(=O)c3cc(C(F)(F)F)cc(C(F)(F)F)c3)CC2)C1	66%
74	CCOc1ccc(S(=O)(=O)N2CCN(C(=O)c3cccn3C)CC2)cc1	67%
75	O=C(Nc1ccccc1N1CCCCC1)c1ccccc1F	-8%

Entries shown so far containing a furan ring, fused or not (six):
entry	Molecule	AmpC nodet inh
8	Cc1nc(NCCN2CCOCC2)c2oc3ccccc3c2n1	-8%
13	COC(=O)c1ccc(N(CC(=O)NC2CCCC2)C(=O)CNC(=O)c2ccco2)cc1	3%
15	O=c1c2ccccc2nc(-c2ccco2)n1CCCn1ccnc1	-11%
20	O=C(c1cnn2ccccc12)N(Cc1ccco1)C1CCCC1	4µM*[single pt active]
27	CCc1nc(NCCCN2CCOCC2)c2oc3ccccc3c2n1	9%
69	O=c1/c(=C/c2ccc(CNS(=O)(=O)c3ccccc3)o2)sc2n1CCN=2	-7%

(continued)
entry	Molecule	AmpC nodet inh
76	Cc1cccc(-c2nnc(SCc3nc4ccccc4[nH]3)n2Cc2ccco2)c1	27%
77	C/C(=N\O)c1ccccc1C(=O)O	-1%
78	Cc1ccc(OCc2ccoc2C(=O)O)cc1C	-4%
79	N#Cc1c(NC(=O)CSc2n[nH]c(Cc3ccccc3)n2)oc(-c2ccccc2)c1-c1ccccc1	10µM*
80	O=C(CCN1CCN(c2ccccc2F)CC1)Nc1ccccc1F	38%
81	COCCOC(=O)/C=C1/NC(=O)CS1	-14%
82	Cc1ccc(CSCCNS(C)(=O)=O)cc1	10%
83	CCCOc1ccccc1C1NC(=O)NC(C)=C1C(=O)OCCOCC (stereo unspecified)	21%
84	O=C(O)c1ccc(-n2nnnc2Oc2ccccc2C(=O)N2CCOCC2)cc1	1%
85	CC(c1ccco1)N(C(=O)c1cccs1)c1ccccn1 (stereo unspecified)	-2%
86	CCCCc1n[nH]c2c1C(=O)CC(C)(C)C2	8%
87	c1ccc(Nc2ncnc3ccc(-c4ccc5c(c4)OCO5)cc23)cc1	-14%
88	CC(=O)c1cc2c(cc1NC(=O)c1cc3nc(C(C)C)cc(C(F)(F)F)n3n1)OCO2	40%
89	O=C1OC(N2CCN(C(=O)C3CCCO3)CC2)c2ccccc21 (stereo unspecified)	-5%
90	Cc1cc(C)c2nc3s/c(=C/c4ccc5c(c4)n(C)c(=O)n5C)c(=O)n3c2c1	3%
91	O=C(Nc1ccccc1Cl)c1cc(S(=O)(=O)N2CCCC(C(=O)O)C2)ccc1F (stereo unspecified)	-4%
92	O=C(c1cccc(S(=O)(=O)N2CCCC2)c1)N1CCN(c2ccccc2F)CC1	0%
93	C/C(N)=C(/C#N)C(=O)CSc1nnnn1-c1ccc(C)cc1	6%
94	COc1ccccc1NS(=O)(=O)c1cc(C(=O)NCCN2CCOCC2)ccc1Cl	24%
95	O=S(=O)(c1ccc2oc(-c3ccncc3)nc2c1)c1ccc2oc(-c3ccncc3)nc2c1	32%
96	COc1cccc(Cn2c(=O)c(-c3cc(F)cc(F)c3)nc3cncnc32)c1	33%
97	O=C(Cn1c(=O)c2c(ncn2C2CCCC2)n(Cc2ccccc2)c1=O)N1CCc2ccccc21	45%
98	Cc1cc(S(=O)(=O)NC2CCCC2)ccc1F	36%
99	CN1C(=O)C(CC(=O)N2CCN(C(c3ccccc3)c3ccccc3)CC2)N(C)C1=O (stereo unspecified)	89%
100	COCC(=O)N(Cc1cc2cc(OC)ccc2[nH]c1=O)c1ccc(C)cc1	29%

Going on with the list:
entry	Molecule	AmpC nodet inh
101	Cc1cc(S(=O)(=O)N(Cc2ccccn2)Cc2ccco2)ccc1-n1cnnn1	41%
102	CCOC(=O)c1c(C)c(-c2ccccc2)n(CC(=O)N2CCN(C)CC2)c1C	144%
103	CCCCOCC(O)Cn1c(C)nc2ccccc21 (stereo unspecified)	19%
104	COc1ccc(C2CC(c3ccc(C)cc3)Nc3ncnn32)cc1 (stereo unspecified)	80%
105	Cc1cc(C)c(C2=NOC(O)(C(F)(F)F)C2)c(=O)[nH]1 (stereo unspecified)	-10%
106	CCOc1ccc(-n2c(C)nc3cc(C(=O)NCc4ccco4)ccc32)cc1	53%
107	COc1ccc(C(CC(=O)N2CCC3(CC2)OCCO3)NS(=O)(=O)c2ccc(OC)cc2)cc1 (stereo unspecified)	33%
108	C/C(=C\C(=O)c1cccnc1)Nc1ccc(C)c(C)c1	46%
109	CCOc1cc(-n2cnnn2)c(OCC)cc1NC(=O)c1cnccn1	5%
110	O=C(OCc1nnc(-c2ccccc2)o1)c1ccc(S(=O)(=O)NCc2ccco2)cc1	-11%
111	COCCn1c(SCC(=O)Nc2sc(C)c(C)c2C#N)nnc1C(C)C	30%
112	O=c1c2cccc3c2c(nn1CN1CCOCC1)-c1ccccc1-3	16%
113	NNC(=O)CS(=O)(=O)Nc1ncccn1	0%[5.75 µM]
114	O=C(NC1=NCCS1)c1ccncc1	-4%
115	O=C1NCCCC1C(=O)NCCNC(=O)C(F)(F)F (stereo unspecified)	-2%
116	FC(F)(F)c1ccc2c(c1)ncn2C1CCN(Cc2nnnn2C2CCCCC2)CC1	178%
117	Cn1c(=O)c2c(nc(N3CCCCCC3)n2CC(=O)c2ccc(Br)cc2)n(C)c1=O	50%
118	O=C(O)c1ccc(CS(=O)c2cccc(C(F)(F)F)c2)o1 (stereo unspecified)	0%
119	COc1ccc(NC(=O)C2CCCN(S(=O)(=O)c3ccc(C)cc3)C2)cc1OC (stereo unspecified)	79%
120	c1ccc(N=P(c2nc3ccccc3o2)(N2CCOCC2)N2CCOCC2)cc1	-13%
121	Cc1ccc(N(C)C(=O)N2CCN(c3ccccn3)CC2)cc1	64%

Rewritten with each value named: two of the compounds above
31) Cc1ccc(-c2nnn(CC(=O)N(CCO)C(C(=O)NC(C)(C)C)c3ccncc3)n2)cc1 (stereo unspecified)
  AmpC nodet inh: 74%

32) Cc1cc2c(C(C)C)c(O)c(O)c(C=O)c2c(O)c1-c1c(C)cc2c(C(C)C)c(O)c(O)c(C=O)c2c1O
  AmpC nodet inh: -19%
